2A firefly: FMDV 2A StopGo reporter, firefly signal; HEK cells with a luciferase reporter of 2A StopGo recoding; Potency, µM (top dose mostly 57.5 µM), for inactives: at the top dose signal change, negative = less light; 120,000 compounds, 0.23% hits; active = well fitted falling curve with a large enough effect; inconclusive = small, poorly fitted or top-dose-only effect; inactive = no such curve, though single readings can be large or run the other way; also: nearly all actives have a fitted effect of over 60% in size; overnight with compound
2A Renilla: FMDV 2A StopGo reporter, Renilla signal; HEK cells with a luciferase reporter of 2A StopGo recoding; Potency, µM (highest dose often 57.5 µM), for the others: at the top dose signal change, negative = less light; 120,000 compounds, 0.32% hits; active means well fitted falling curve with a large enough effect; inconclusive means small, poorly fitted or top-dose-only effect; inactive means no such curve, though single readings can be large or run the other way; also: nearly all actives have a fitted effect of over 55% in size; overnight with compound
The depositor's hits bear a star; ? = inconclusive; [ ] = another dose, or the depositor's remark. % is scaled to controls: 0 for no effect and ±100 for the full control effect; potency is read from the fitted curve at half-maximal effect. No enrichment for hits (roughly 0.53% active in at least one column).

SMILES	2A firefly	2A Renilla
Cc1ccc(CNC(=O)Cc2nn(C)c(=O)c3ccccc23)cc1F	?	?
Cn1c(=O)n(C)c2cc(N3CCOCC3)c(NC(=O)c3c(F)cccc3F)cc21	?	?
Cc1c(O)nc(SCC(=O)Nc2ccc(Cl)cc2Cl)n(-c2ccc(F)cc2)c1=O	17%	-11%
COc1ccc(NC(=O)CCc2nc3cccnc3n2-c2ccccc2)cc1Cl	-4%	-2%
CC(=O)c1cccc(NS(=O)(=O)c2ccc(-c3cnc(C4CC4)o3)cc2)c1	8.9µM*	-21%
COC(=O)c1ccccc1NC(=O)c1ccc(-c2nc(CSc3ccc(C)cc3)c(C)o2)cc1	-12%	-12%
Cc1ccnc(Nc2nc(-c3ccccc3)c3cc(Cl)ccc3n2)n1	1%	-1%
CN(CCOc1ccc(Br)cc1)C(=O)CSc1nnnn1C	21%	-5%[1.06 µM]
CCOc1cc(/C=C/C(=O)c2ccccc2Cl)cc(Cl)c1O	0%	-9%
Cc1cc(NC(=O)CN2CCN(C(=O)c3ccc(Br)cc3)CC2)no1	14%	15%
CN(CCS(=O)(=O)c1ccccc1)Cc1ccccc1	-7%	-11%
Cc1ccc2c(c1)CC(C)N2S(=O)(=O)c1nnc(NC(=O)C(C)C)s1 (stereo not given)	-16%	11%
Cc1cc(C)nc(-n2nc(C)c3c2N(Cc2ccccc2C)C(=O)CC3c2ccc(Cl)cc2)n1 (stereo not given)	-6%	2%
CCC(Sc1ncnc2sc3c(c12)CCCC3)C(=O)OCC(C)C (stereo not given)	-9%	-9%
c1ccc(-c2nc(CSC3=NCCCN3)cs2)cc1	0%	-6%
CC(CNC(=O)c1cc2ccccc2s1)N1CCCC1 (stereo not given)	-3%	-13%
C=CCNC(=O)NC(=O)CN(C)Cc1ccccc1Br	19%	-12%[1.06 µM]
COCCCNC(=O)CCc1c(C)nc2nc(-c3cc(OC)cc(OC)c3)nn2c1C	-26%	-10%
Cc1ccc(C)c(NC(=O)Cn2c(=O)n(-c3ccc(CC(=O)NC(C)C)cc3)c(=O)c3ccccc32)c1	4%	-2%
O=C(CN1CCN(Cc2ccccc2Cl)C1=O)NCCc1ccc(Cl)cc1	-8%	11%
CC(C)Cn1nc(C(=O)N2CCCC(c3nc4ccccc4s3)C2)c2ccccc2c1=O (stereo not given)	9%	10%
COc1ccc2c(c1)CC/C2=N\OC(=O)c1cc(SC)ccc1Cl	24%	-11%
COc1ccc(OC)c(NC(=O)COC(=O)c2ccc(C)s2)c1	14%	1%
CCCCC(=O)NC1(C(F)(F)F)C(=O)N(Cc2ccccc2)C(C)=C1C(=O)c1ccccc1 (stereo not given)	-20%	8%
CCCCSc1nnc2n(-c3ccc(OC)cc3)c(=O)c3c4c(sc3n12)COC(C(C)C)C4 (stereo not given)	-12%	-6%
Remaining list, next part:
SMILES	2A firefly	2A Renilla
Cc1nc2c(-c3ccccc3)c(C)nn2c(C)c1CCC(=O)NCc1ccccc1Cl	-1%	-10%
COc1ccccc1CNC(=O)c1ccc(-c2nc(CS(=O)c3ccccc3)c(C)o2)cc1 (stereo not given)	-25%	16%
Cc1c(Cl)cccc1NC(=O)C(C)n1c(=O)cc(C)c2c(C)nn(-c3ccccc3)c21 (stereo not given)	-16%	-10%
N#CC(C#N)=Cc1cc(-c2ccccc2)[nH]c1-c1ccccc1	9%	1%
CCOC(=O)c1c(C)[nH]c(C)c1S(=O)(=O)N1CCN(c2cccc(C(F)(F)F)c2)CC1	0%	12%
Cc1nc2ccc(C(=O)NCC(C)C)cc2nc1C	0%	6%
CCCCCCOc1ccc(C(=O)/C=C/C(=O)O)cc1	?	?
Cc1nc2c(C(=O)NCCc3ccc(Cl)cc3)c[nH]n2c(=O)c1Cc1ccccc1F	-12%	-9%
Cn1c(=O)c2sccc2n2c(CCCC(=O)NC3CCCCC3)nnc12	12%	-6%
CCCOc1cc(C)c(C)cc1S(=O)(=O)Nc1cccnc1	10%	182%[activator]
CC(=O)c1cccc(NC(=O)CSc2nc3c(=O)n(C)c(=O)n(C)c3n2C)c1	-18%	-15%
COc1ccc(S(=O)(=O)N2CCC(C(=O)NCc3cccnc3)CC2)cc1	0%	13%
CCN1CCN(Cc2c(O)ccc3oc(C)c(C(=O)Nc4ccc(OC)cc4)c23)CC1	-15%	-11%
Cc1nn(-c2ccc(N3CCCC3)nn2)c(C)c1CCC(=O)NCc1ccc(OC(C)C)cc1	-26%	?
CCCn1c(NC(=O)c2oc3ccccc3c2COCC)nc2ccccc21	-17%	-3%
C[C@H](O)[C@@H]1CN2CCc3ccc(N4CCOCC4)cc3[C@@H]2C[C@@H]1N(C)CC1CCCCC1	9%	4%
O=C(NC1CCCc2ccccc21)c1csc2c1CCCCC2 (stereo not given)	42%[activator]	54%[activator]
COc1ccccc1-c1cc(C(F)(F)F)nc(S(=O)(=O)CCCC(=O)Nc2cc(OC)c(OC)c(OC)c2)n1	5%	1%
CCc1cccc(NC(=O)C2CCCN2S(=O)(=O)c2ccc3nc(-c4ccccc4)[nH]c3c2)c1 (stereo not given)	-28%	-27%
CCc1cc(=O)[nH]c(SCc2nc(-c3ccccc3C)no2)n1	0%	-16%
CC(C)c1ccc(/C=C/C(=O)Nc2ccc(Cl)cc2C(F)(F)F)cc1	-1%	-2%
Cc1ccc(NC(=O)Cc2ccc(NC(=O)N3CCCCc4ccccc43)cc2)cc1Cl	-16%	0%
CCC1CCc2sc(C(=O)NCc3csc(-c4cccc(C)c4)n3)cc2C1 (stereo not given)	21%	67%[activator]
Cc1cc(Br)ccc1NC(=O)Cn1cc(S(=O)(=O)N2CCN(c3ccccc3F)CC2)c2ccccc2c1=O	-21%	-14%
COc1cccc(C(=O)Nc2ccc(-n3nncc3-c3ccccc3)cc2)c1OC	-18%	?

An excerpt of these results, as labelled records.
CC(=O)c1cccc(NC(=O)CSc2nc3c(=O)n(C)c(=O)n(C)c3n2C)c1
- 2A firefly = -18%
- 2A Renilla = -15%
COc1ccc(S(=O)(=O)N2CCC(C(=O)NCc3cccnc3)CC2)cc1
- 2A firefly = 0%
- 2A Renilla = 13%
CCN1CCN(Cc2c(O)ccc3oc(C)c(C(=O)Nc4ccc(OC)cc4)c23)CC1
- 2A firefly = -15%
- 2A Renilla = -11%
Cc1nn(-c2ccc(N3CCCC3)nn2)c(C)c1CCC(=O)NCc1ccc(OC(C)C)cc1
- 2A firefly = -26%
- 2A Renilla = ?

The listing continues.
SMILES	2A firefly	2A Renilla
Cc1nn(C)c2sc(C(=O)NCCc3ccc(C(=O)O)cc3)cc12	-2%	-8%
Cc1ccc2nc(NC(=O)CSc3nccn3Cc3ccccc3)sc2c1	83%[activator]	6%
Cc1ccc(S(=O)(=O)N2CCN(CC(=O)NC(=O)NC(C)(C)C)CC2)cc1C	-10%	-7%
CCn1nnc(NC(=O)COc2ccc(Cl)cc2Cl)n1	11%	-10%
Cc1ccc(Cl)cc1N1CCN(S(=O)(=O)c2c(C(=O)N3CCCCC3)c(C)n(C)c2C)CC1	-1%	51%[activator]
CC(C)c1ccc(NS(=O)(=O)c2ccc3nc(-c4ccccc4)[nH]c3c2)cc1	-1%	103%[activator]
COc1ccccc1CNC(=O)C(=O)NCC(c1cccnc1)N1CCN(c2ccccc2)CC1 (stereo not given)	-21%	-16%
Cc1oc(-c2cccs2)nc1CC(=O)Nc1ccccc1N1CCCCCC1	-7%	12%
COc1ccccc1C1c2c(-c3ccc(C)cc3)n[nH]c(=O)c2Nc2nnnn21 (stereo not given)	12%	1%
CCC(NC(=O)Nc1ccc(OC)c(OC)c1)c1c(-n2cccc2)sc2c1CCN(C)C2 (stereo not given)	-15%	-8%
Cc1cccc(NC(=O)C(=O)NCC(c2cccnc2)N2CCN(Cc3ccccc3)CC2)c1 (stereo not given)	-2%	-7%
Cc1cccc(C(=O)Nc2cccc(-c3nc4ccccc4o3)c2)c1	1%	1%
CCC(C)NC(=O)CCNC(=O)c1cc2ccc(OC)cc2nc1C (stereo not given)	11%	-4%
CC(=O)NCCNC(=O)CCCc1nnc2n(CCC(C)C)c(=O)c3sccc3n12	-18%	-14%
Cc1ccc(S(=O)(=O)CCC(=O)OCC(=O)NC(C)C(C)C)cc1 (stereo not given)	-9%	-10%
CC(C)CCC1(CCNCc2ccc(OC(C)C)cc2)CCOC(C)(C)C1 (stereo not given)	5%	144%[activator]
Cc1nnc(NC(=O)c2cc(-c3ccc(Br)cc3)nc3ccccc23)s1	20%	-4%
COc1ccc(CC(=O)NCC(c2ccc(N(C)C)cc2)N2CCOCC2)cc1OC (stereo not given)	-13%	-11%
Cc1ccc(NC(=O)Cc2n[nH]c(=O)c3ccccc23)cc1	32%[activator]	-6%
O=C(CCN1CCC(c2ccccc2)C1)c1ccc2ccccc2c1 (stereo not given)	16%	11%
Cc1ccc(NC(=O)Cn2c(=O)cc(-c3ccccc3)c3c(C)nn(C)c32)c(Cl)c1	-7%	-3%
CN(Cc1nc2ccccc2n1C(F)F)S(=O)(=O)c1c(F)cccc1F	19%	0%
Cc1cccc(-c2nc(CSc3nc(C)c(C)c(=O)[nH]3)c(C)o2)c1	-3%	2%
Clc1ccc(C(c2ccccc2)c2c[nH]c3ccccc23)s1 (stereo not given)	27%	16%
O=C1CCSc2ccc(S(=O)(=O)N3CCN(c4ccccc4F)CC3)cc2N1	-20%	-10%

Profiles, looked up by structure. Order of values: 2A firefly | 2A Renilla
Record of CCCCCCOc1ccc(C(=O)/C=C/C(=O)O)cc1 → ? | ?
Record of O=C(NC1CCCc2ccccc21)c1csc2c1CCCCC2 (stereo not given) → 42%[activator] | 54%[activator]
Record of COC(=O)c1ccccc1NC(=O)c1ccc(-c2nc(CSc3ccc(C)cc3)c(C)o2)cc1 → -12% | -12%
Record of Cc1nn(-c2ccc(N3CCCC3)nn2)c(C)c1CCC(=O)NCc1ccc(OC(C)C)cc1 → -26% | ?

Other compounds
SMILES	2A firefly	2A Renilla
CC(=O)c1ccc(NC(=O)c2sc(-n3nc(C)c(Cc4ccc5c(c4)OCO5)c3C)nc2C)cc1	-1%	-11%
Cc1cccc(C(=O)NC(Nc2ccc(Br)cc2)C(Cl)(Cl)Cl)c1 (stereo not given)	-6%	10%
On1nnc2c1ccc1nnn(O)c12	10%	21%
CCCCCCc1ccc(C(=O)Cn2cnc3c2c(=O)n(C)c(=O)n3C)cc1	8%	-8%
C=CCN1C(=O)COc2ccc(NC(=O)c3cc(=O)c4cc(C)cc(C)c4o3)cc21	0%	1%
COC(=O)c1ccc2c(c1)CCN2	59%[activator]	0%
Cc1ccc(C(=O)c2sc(Nc3ccccc3F)nc2N)c(C)c1	0%	6%
Cc1ccc(C(=O)C(C)OC(=O)CCc2c[nH]c3ccccc23)cc1 (stereo not given)	-4%	0%
O=C(Cc1c[nH]c2ccccc12)N1CCN(C(=O)NCCc2ccccc2)CC1	25%	-10%
Cc1cccc(CC(=O)N2CC(=O)Nc3ccc(Br)cc3C2c2ccccc2)c1 (stereo not given)	-24%	21%
Cc1ccc2c(c1)-c1nc(-c3ccc4c(c3)NC(=O)CO4)cc(-c3ccc(F)cc3)c1CO2	-16%	-12%
Cc1ccc(-n2nc(C(=O)Nc3ccc(F)cc3F)c3c4ccccc4n(C)c3c2=O)cc1	-1%	-9%
CCOC(=O)C1CCN(c2cc3c(cc2NC(=O)c2ccccc2Cl)n(C)c(=O)n3C)CC1	0%	-4%
O=C(c1ccc(CS(=O)c2ccccc2Cl)o1)N1CCN(c2cccc(C(F)(F)F)c2)CC1 (stereo not given)	0%	-1%
C/C=C/Cn1c(SCc2ccc(Cl)cc2)nc2c1c(=O)[nH]c(=O)n2C	8%	-3%
O=C(Nc1cccc2ncccc12)c1cccc([N+](=O)[O-])c1	9%	-26%
Cc1cccc(Cn2c(NCCc3ccccc3)nc3c2c(=O)n(C)c(=O)n3C)c1	-48%	?
COc1ccc(-c2nc(CS(=O)CC(=O)NCc3ccc(F)cc3)c(C)o2)cc1 (stereo not given)	16%	12%
O=S(Cc1ccccc1)Cc1cccc(Cl)c1 (stereo not given)	7%	13%
CCN(CC)S(=O)(=O)c1ccc(NC(=O)c2nn(C)c3c2CSc2ccccc2-3)cc1	-13%	-6%
Cn1c(C=O)ccc1-c1ccc(F)cc1	21%	0%
Cc1ccccc1NC(=O)C(C#N)=C1CCCCCC1	65%[activator]	41%[activator]
Cc1cc(F)ccc1NC(=O)c1nc2ccccc2nc1N1CCOCC1	5%	2%
CCOc1ccc(N(C(=O)c2cc(OC)c(OC)c(OC)c2)C2C=CS(=O)(=O)C2)cc1 (stereo not given)	-9%	-9%
CC(C)CCn1cnc2c1c(=O)n(CC(=O)Nc1cc(F)ccc1F)c(=O)n2Cc1ccccc1	-12%	-1%
COc1ccc(CC(=O)N2CCc3cc(OC)c(OC)cc3C2COc2cc(C)cc(C)c2)cc1OC (stereo not given)	-29%	46%[activator]
Cc1nc(CN2C(=O)COc3ccc(S(=O)(=O)NC4CCCCCCC4)cc32)no1	4%	129%[activator]
Cc1cccc(CNC(=O)c2ccc(NC(=O)N3CCSc4ncccc43)cc2)c1	-9%	-8%
O=C(CSc1oc(-c2ccccc2)nc1S(=O)(=O)c1ccccc1)c1ccccc1	0%	233%[activator]
Cc1cccc(CN2CCN(C(=O)Cc3n[nH]c(=O)c4ccccc34)CC2)c1	-15%	-21%

Assay outcomes: PubChem, National Center for Advancing Translational Sciences (NCATS)
